CtBP-E1A inh: CtBP/E1A binding inhibition | AlphaScreen GST-E1A/His-CtBP binding, 1536-well; active compounds read low; control for the full effect not named in the record | activity change, % (concentration not given with the values) | actives 0.49% (n = 340,000); in the data active means activity change below about -65%; inconclusive means about -30% to -65%; inactive means above about -30%; further: on the % scale 0 is the no-effect control and ±100 the full control effect
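Homogeneous bead-based format: GST-tagged E1A captured on glutathione donor beads, His-tagged CtBP on nickel acceptor beads; compounds precede bead addition by 2 h at 37 °C.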
Six1-Eya2 inh: inhibitors of human Six1/Eya2 interaction | AID 651725 | activity change, % (test concentration not listed) | AlphaScreen GST-Six1/His-Eya2 binding, biochemical; active compounds read low; control for the full effect not named in the record | actives 0.56% (n = 360,000); in the data active = activity change below about -65%; inconclusive = about -30% to -65%; inactive = above about -30%; further: on the % scale 0 is the no-effect control and ±100 the full control effect
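AlphaScreen with GST-Six1 and His-Eya2 (5X mix: 250 nM and 500 nM), glutathione donor and nickel acceptor beads; buffer 50 mM Tris pH 8.0, 300 mM NaCl, 1 mM TCEP; 1 h at 37 C in the dark.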
gsp antag: antagonizes gsp, the McCune-Albright syndrome mutation. AID 624288. gsp-mutant cells, cAMP HTRF, 30 min; control for the full effect not named in the record. Potency, µM (top dose mostly 76.9 µM), without a hit: top-dose activity change, negative = inhibition, most hits filed as inhibitors. actives 0.4% (n = 340,000); active = falling curve of any shape with a large fitted effect; inconclusive = falling curve, mostly with a smaller effect; inactive = flat or rising curve; cell line not stated here;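 further: intracellular cAMP measured with PDE inhibitor Ro 20-1724 present during compound exposure; potency means the concentration at half of the fitted maximal effect; on the % scale 0 is the no-effect control and ±100 the full control effect; nearly all actives have a fitted effect of over 65% in size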
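G418-selected cells were plated in DMEM/10% FBS for 16-24 h at 37C, then treated with compounds plus the PDE inhibitor […] (300 uM solution added) for 30 min at 37C. Intracellular cAMP was measured by HTRF after 30 min lysis at room temperature.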
D2 agonist: activates the human D2 dopamine receptor; P14416; DiscoveRx PathHunter D2 beta-arrestin, luminescence, 90 min; 100% = 57 uM dopamine signal; activation, % (test concentration not listed); actives 0.084% (n = 360,000); in the data active = activation above about 40%; inconclusive = about 15% to 40%; inactive = below about 15%; further: compound concentration not given in the record; the text of the record calls up to 30% inactive
Target sequence (P14416 whole entry, looked up): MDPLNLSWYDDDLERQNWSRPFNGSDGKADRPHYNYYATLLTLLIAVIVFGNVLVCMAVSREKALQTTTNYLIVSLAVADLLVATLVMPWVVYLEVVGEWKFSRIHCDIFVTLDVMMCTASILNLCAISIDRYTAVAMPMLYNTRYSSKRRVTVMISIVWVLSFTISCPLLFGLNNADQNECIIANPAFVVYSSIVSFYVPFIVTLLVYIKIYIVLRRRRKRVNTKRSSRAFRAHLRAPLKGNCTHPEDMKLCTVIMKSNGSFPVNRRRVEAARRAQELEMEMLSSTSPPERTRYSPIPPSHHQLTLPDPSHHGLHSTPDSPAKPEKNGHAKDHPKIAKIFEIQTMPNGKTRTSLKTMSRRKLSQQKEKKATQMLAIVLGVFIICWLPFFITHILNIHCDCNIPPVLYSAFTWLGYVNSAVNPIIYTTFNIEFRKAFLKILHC
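Agonist mode: compounds alone added to overnight-plated D2 PathHunter cells for 90 min at 37 C, with 57 uM final dopamine (EC100) defining full response. Beta-arrestin recruitment detected by chemiluminescent reagent, read after 1 h at ambient temperature.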
D2 potentiator: human D2 receptor positive allosteric modulation | P14416 | DiscoveRx D2 beta-arrestin cells, luminescence, 90 min; 100% = 57 uM dopamine signal | potentiation, % (test concentration not listed) | actives 0.23% (n = 360,000) | AID 624464; active = potentiation of 50% or more; inconclusive = 30% to 50%; inactive = 30% or less;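 further: compound concentration not given in the record; tested on top of an EC20 dose of dopamine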
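PathHunter beta-arrestin assay in DiscoveRx D2 cells. Compounds were added with an EC20 of dopamine (50 nM final) for 90 min at 37 deg C. Luminescence was read 1 h after detection reagent, with 57 uM dopamine as the EC100 control.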
gsp ag: agonists of gsp mutant (McCune-Albright syndrome) | actives 0.13% (n = 340,000) | gsp mutant cells, cAMP HTRF, 30 min; control for the full effect not named in the record | Potency, µM (top dose mostly 76.9 µM), for inactives: top-dose activation (cAMP increase), usual class: activators; active = well fitted activation curve with a large enough effect; inconclusive = small, poorly fitted or top-dose-only effect, or another doubt; inactive = no such curve, though single readings can be large or run the other way; cell line not stated here;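 further: phosphodiesterase inhibitor Ro 20-1724 added with compounds to block cAMP breakdown; potency means the concentration at half of the fitted maximal effect; nearly all actives have a fitted effect of over 60% in size; about a fifth of the inactives were tested at one dose only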
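Cells stably selected in G418 were plated at 2000/well, grown 16-24 hr, then given compounds in DMSO with the PDE inhibitor […] (300 uM solution added) for 30 min at 37C; cAMP was read by HTRF.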
Numbers without * were called inactive; ? = inconclusive; · = not tested or not shown; [ ] = another dose, or the depositor's remark. Not a hit list; overall some 1.4% were active at least once.

CtBP-E1A inh	Six1-Eya2 inh	gsp antag	D2 agonist	D2 potentiator	gsp ag	SMILES
-20	-6	-3%	5.1	-2	-59%[inhibitor]	O=C(CC1C(=O)NCCN1Cc1ccoc1)NCCc1ccc(Cl)cc1 (centres undefined)
-1	4	5%	-4.6	7	-37%[inhibitor]	CN(CC(=O)Nc1ccccc1Cl)C(=O)COC(=O)c1cccs1
-14	4	8%	-3.5	-7	1%[15.4 µM]	COc1ccc(CCNC(=O)c2noc(C)c2[N+](=O)[O-])cc1OC
1	36	-15%	-3.2	-4	-47%[15.4 µM]	CC(=O)c1ccc(S(=O)(=O)NCCC(=O)OCC(=O)NCCc2ccccc2)cc1
·	-2	-13%	-4.2	-6	6%	Cc1cc(Br)cc(Cl)c1OCC(=O)N1CCN(C(=O)c2ccco2)CC1
2	-8	?	-2.8	-8	-13%[15.4 µM]	Cc1ccc(NC(=O)CSc2ncnc3ccccc23)cc1S(=O)(=O)N1CCCCC1
5	3	-3%	-1.4	-11	-23%	c1ccc(Cn2c(SCCN3CCOCC3)nnc2-c2cccnc2)cc1
9	24	-5%	-0.4	-10	13%[15.4 µM]	C/C(=N/OC(=O)C1CC12CCC2)c1ccc(Br)cc1 (centres undefined)
4	-2	11%	-1.1	-10	22%	CN(C)c1ccc(/C=N/N=C/c2ccccc2O)cc1
15	6	5%	-2.0	-8	0%[15.4 µM]	COc1ccccc1-n1c(CNC(=O)c2cccs2)n[nH]c1=S
?	?	-15%	2.5	26	-30%[inhibitor]	O=C(Nc1ccc2nc3ccccc3nc2c1)c1ccccc1
-3	-12	-16%	-2.1	-6	2%	COc1ccccc1NC(=O)/C(C#N)=C/c1cccn1C
6	0	-11%	-1.7	-7	16%	CCOC(=O)CC(=O)CSc1nc2c(cc1C#N)CCC2
-6	0	·	-3.6	-12	·	CCc1nc2ccc(C(=O)N3CCCCC3)cn2c1N(CCC(C)C)CCN(C)C
6	-1	20%	1.8	-2	8%[15.4 µM]	Cc1ccc(C(=O)OCC(=O)NCc2ccco2)s1
0	-1	-11%	1.2	-14	3%	C=CCn1c(SCc2c(C)noc2C)nc2sc3c(c2c1=O)CCCC3
2	1	-6%	0.6	1	13%[15.4 µM]	C/C(=N\Nc1c([N+](=O)[O-])c(C)nn1C)c1ccc(F)cc1F
6	4	10%	-1.8	3	12%	COc1cc(C(=O)N=C2SC3CS(=O)(=O)CC3N2c2ccccc2)cc(OC)c1OC (centres undefined)
6	-4	-2%	-0.8	-5	-5%	O=C(CN(Cc1ccc(F)cc1)C(=O)CCC(=O)Nc1ccccn1)NCc1ccc(F)cc1
5	9	-4%	-0.9	-12	4%	O=S1(=O)CCO[C@H]2Cc3ccccc3[C@H]2N1Cc1cccc(C(F)(F)F)c1
-1	2	?	3.3	1	25%	COc1ccc(N(C(=O)c2snc(C(N)=O)c2N)C(C(=O)NC2CCCC2)c2ccc(OC)c(OC)c2)cc1 (centres undefined)
·	82	1%	?	-2	21%	Oc1ccccc1C1=NN(c2ccccc2)C(c2ccccc2)C1 (centres undefined)
2	7	-5%	-3.2	-10	1%	CN(C)S(=O)(=O)c1cccc(C(=O)Nc2ccccc2[N+](=O)[O-])c1
8	-1	5%	-0.1	2	3%	O=C1C=C(O)C(n2cncn2)C(c2ccc(F)cc2)C1 (centres undefined)
-5	8	-2%	-1.9	5	?	Cc1ccc(S(=O)(=O)CCC(=O)OCC(=O)NCC(=O)Nc2c(C)cc(C)cc2C)cc1
8	3	35µM*	-1.5	1	35%[15.4 µM]	O=C(N/N=C/c1cccc(Br)c1)c1ccc(Cn2cc(Br)cn2)o1
-4	-8	-1%	2.5	-3	8%	Cc1ccccc1CN(c1ccc(C(=O)Nc2ccccc2C(=O)NCc2ccco2)cc1)S(C)(=O)=O
6	1	1%	2.6	-3	17%	Cc1ccc(C(=O)NCCCNC(=O)c2ccccn2)cc1
-1	6	13%	0.3	4	-28%	O=C1C2C3C=CC(C4CC34)C2C(=O)N1/N=C/c1ccc([N+](=O)[O-])s1 (centres undefined)
3	3	2%	2.5	1	-2%	N#Cc1ccc(CSCC(=O)NN=C2CCCC2)cc1
-19	-7	1%	-1.0	-7	?	O=C(COC(=O)CSc1ccc(Cl)cc1)Nc1ccc2[nH]c(=O)[nH]c2c1
-10	4	7%	2.9	-7	5%	CCn1cc(C2C3=C(CC(C)(C)CC3=O)N(c3ccc(C)cc3)C3=C2C(=O)CC(C)(C)C3)c(C)n1
-3	6	6%	-1.1	1	-3%	CCOC(=O)Cc1csc(NS(=O)(=O)c2ccc(F)cc2)n1
5	0	11%	1.7	-16	0%	Cc1cccc(OCCCCCN2CCOCC2)c1C
?	-17	17%	-1.1	-11	-27%[15.4 µM]	CCOC(=S)SCc1cn2ccccc2n1
-8	-1	?	-1.4	11	-35%[inhibitor]	COc1cc(C(=O)NC(C)c2cc(C)ccc2C)ccc1OCC(=O)N1CCOCC1 (centres undefined)

An excerpt from above, reduced to D2 agonist:
| Structure | D2 agonist |
| --- | --- |
| Cc1ccc(S(=O)(=O)CCC(=O)OCC(=O)NCC(=O)Nc2c(C)cc(C)cc2C)cc1 | -1.9 |
| Cc1ccc(C(=O)NCCCNC(=O)c2ccccn2)cc1 | 2.6 |

Carrying on.
CtBP-E1A inh	Six1-Eya2 inh	gsp antag	D2 agonist	D2 potentiator	gsp ag	SMILES
8	-12	13%	-7.1	-4	?	CSc1nc(N)nc(C(C)C)n1
-12	4	-15%	-1.4	-5	13%[15.4 µM]	Cc1ccc(O)c(C(=O)c2cnc3c(c2)c(C)nn3C)c1
-17	-2	-18%	-1.7	-3	13%	CC(=O)Nc1ccc(C(=O)Nc2cccc(S(=O)(=O)N(C)c3ccccc3)c2)cc1
3	1	-15%	-2.4	-16	-35%[inhibitor]	N#Cc1ccccc1Sc1ccccc1C(=O)Nc1ccc(Br)cc1
4	-5	-4%	-5.5	-3	?	Cc1ccc(N(C)C(=O)C2CCN(S(=O)(=O)c3ccc4c(c3)oc(=O)n4C)CC2)cc1
1	1	10%	-0.8	1	11%	CS(=O)(=O)N1CCN(C(=O)Cc2cccs2)CC1
2	5	2%	-2.3	-11	-1%	Cc1ccc(SCC(=O)NCCN2C(=O)CSC2=O)cc1C
2	5	-6%	0.1	-4	-5%	COc1ccc([C@H]2[C@@H](C#N)[C@H](C#N)N3CCCN23)cc1
5	-1	-2%	-7.8	-4	?	COc1ccc(CCNC(=O)c2coc(=O)c(Br)c2)cc1
-2	0	-16%	-0.1	-4	4%	COC(=O)c1cc(NC(=O)C2COc3ccccc3O2)cc(C(=O)OC)c1 (centres undefined)
0	3	4%	-1.2	-6	-64%[inhibitor]	COc1cccc(CC(=O)OCC(=O)NC2(C#N)CCCCC2)c1
4	-1	-5%	-0.4	-20	-12%	COc1ccccc1N1CCN(C(=O)CCNS(=O)(=O)c2ccc3c(c2)CCC(=O)N3)CC1
-5	22	8%	-2.1	-4	-17%[15.4 µM]	COc1ccc(Cl)cc1Nc1nc2ccc(C)cc2n2cnnc12
·	1	-16%	9.1	?	12%	CN(C)c1ccc(Nc2cc(Cl)ncn2)cc1
-2	-2	-25%	-3.3	-3	-36%[inhibitor]	Cc1noc(C)c1CSCC(=O)N(C)CC(=O)Nc1ccc(Cl)c(Cl)c1
1	9	-1%	2.5	-9	10%	CCOC(=O)C1C(=O)CC(C)(O)C(C(=O)OCC)C1c1ccc(Br)o1 (centres undefined)
-29	?	-9%	-1.0	-12	·	COc1ccc(COc2cc(-c3cccc(OC)c3)nc3ccc(NC(C)=O)cc23)cc1
·	0	-2%	-4.7	-7	7%	N=C1C(c2ccccc2)=C(O)CN1c1cccc(S(=O)(=O)NCc2ccco2)c1
·	-2	-2%	-1.3	-1	4%	CCOc1ccc(Oc2ccc(C(F)(F)F)cc2NC(=O)C2=COCCO2)cc1
-1	-5	-26%	-0.1	-8	13%	O=C(CSc1nc(-c2ccccc2)nc2ccc(F)cc12)Nc1cccc(C(=O)O)c1
-21	-6	8%	-2.2	-18	?	COc1ccccc1N1CCN(C(=O)C2CCC(CNS(=O)(=O)c3ccc(NC(C)=O)cc3)CC2)CC1 (centres undefined)
3	7	8%	-1.6	-8	6%	CCOc1ccc(Cl)cc1S(=O)(=O)N1CCC(C(=O)NCc2cccnc2)CC1
4	0	11%	0.8	-2	11%	CCCCn1c(N)c(N(CCOC)C(=O)c2ccc(C)c(S(=O)(=O)N3CCOCC3)c2)c(=O)[nH]c1=O
·	?	-3%	2.9	5	5%	CCCCC(=O)NC(c1cccs1)c1cc(Cl)c2cccnc2c1O (centres undefined)

The final 2 entries of the section before lead into the next:
CtBP-E1A inh	Six1-Eya2 inh	gsp antag	D2 agonist	D2 potentiator	gsp ag	SMILES
4	0	11%	0.8	-2	11%	CCCCn1c(N)c(N(CCOC)C(=O)c2ccc(C)c(S(=O)(=O)N3CCOCC3)c2)c(=O)[nH]c1=O
·	?	-3%	2.9	5	5%	CCCCC(=O)NC(c1cccs1)c1cc(Cl)c2cccnc2c1O (centres undefined)
-10	4	-21%	-2.5	0	2%[15.4 µM]	CC(=O)c1ccc(N2CCN(C(=O)c3cc(-c4cccnc4)nc4ccc(Br)cc34)CC2)cc1
11	7	-3%	5.6	-4	11%[15.4 µM]	COc1cccc(C(=O)Nc2cccc(C(C)=O)c2)c1
-1	1	-35%	-2.8	-25	-1%[15.4 µM]	COc1ccccc1NC(=O)/C=C/c1ccc(OC)c(S(=O)(=O)N2CCOCC2)c1
3	-10	-7%	-1.1	-13	25%[15.4 µM]	O=C(Nc1ccc(OCC(=O)N2CCOCC2)cc1)c1cccc(Cl)c1
-4	-2	10%	0.3	-29	23%	O=C(CCN1CCCCC1)Nc1ccc(Br)cc1
0	0	8%	-1.3	-8	18%	CS(=O)(=O)N(CC(=O)NCc1ccncc1)c1cc(Cl)cc(Cl)c1
-3	0	-17%	-5.5	2	11%	Cc1c(NC(=O)C(=O)/C=C(/O)c2ccccc2)c(=O)n(-c2ccccc2)n1C

Compound activity: PubChem BioAssay, National Center for Advancing Translational Sciences (NCATS)
